Screening data from PubChem BioAssay.
Beta apoptosis = blocks beta cell apoptosis. INS-1E cytokine-induced death, ATP luminescence, 48 h; percent of positive-control rescue, neutral wells zero. protection from apoptosis, % (no concentration beside the values). hit rate 0.8% among 300,000;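 active = all replicates at 75% or more, or half of them and the mean; inconclusive = half reach 75% but not the mean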;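 also: 0% = cytokine-treated negative control wells and 100% = positive control rescue; higher means more ATP so stronger rescue from cytokine killing; wells of about 40 µL received 100 nL stock; the first replicate is given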
Bfl-1 A1 inh = inhibitors of the anti-apoptotic protein A1, read as caspase activation; MEF A1-2A-BIM cells, Caspase-Glo 3/7 luminescence, 3 h; percent of clofoctol response, vehicle zero; caspase activation, % (concentration not given with the values); hit rate 0.066% among 330,000;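 active = over half of replicate activation scores above 10%, or exactly half above 10 with the replicate mean above 10; inconclusive = replicate mean below 10 yet half the replicates above 10; inactive = over half of replicates below 10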;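 also: wells of about 30 µL received 50 nL stock; many hits fall short of the cut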
RanGTP-Imp inh = inhibitors of RanGTP-importin-beta interaction, primary screen, biochemical, FRET, CFP-Ran, YFP-importin-beta, homogeneous. hit rate 1.1% among 300,000. inhibition, % (no concentration beside the values). cell-free CFP-Ran/YFP-importin-beta FRET ratio;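 active = most replicates above 15%; inconclusive = exactly half above 15%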;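 also: 0% = DMSO wells and 100% = Ran loaded with GDP instead of GTP; wells of about 40 µL received 100 nL stock; the first replicate is given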
UCH37 DUB inh = blocks the human deubiquitinase UCH37 | Q9Y5K5 | purified proteasome/UCH37, Ub-AMC cleavage fluorescence | inhibition, % (test concentration not listed) | hit rate 0.33% among 330,000 | AID 588478;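 active = mean of two replicates above 20%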;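 also: 0% = compound-free wells with enzyme and 100% = wells lacking proteasome; stock transfer was 100 nL into about 20 µL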
Target sequence (Q9Y5K5 whole entry, looked up): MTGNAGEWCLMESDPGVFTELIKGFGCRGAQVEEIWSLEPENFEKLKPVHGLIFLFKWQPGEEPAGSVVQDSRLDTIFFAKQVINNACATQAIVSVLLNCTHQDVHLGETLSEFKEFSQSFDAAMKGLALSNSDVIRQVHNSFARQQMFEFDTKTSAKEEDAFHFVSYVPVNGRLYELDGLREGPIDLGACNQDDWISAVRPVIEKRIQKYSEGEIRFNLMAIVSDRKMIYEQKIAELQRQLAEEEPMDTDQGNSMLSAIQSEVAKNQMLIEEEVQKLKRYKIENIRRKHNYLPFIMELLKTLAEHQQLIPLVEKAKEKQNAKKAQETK
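system = Proteasome-associated human UCH37 deubiquitinase | amount = 0.15 nM proteasome as dispensed | medium = pH 7.4 Tris-HCl (50 mM) with ovalbumin, ATP-MgCl2, DTT | incubation = 30 min preincubation with enzyme, 25 min cleavage at room temperature | detection = AMC fluorescence 355/460 nm | read-out basis = percent inhibition | controls = no-proteasome and no-compound wells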
Calb FLC = affects C. albicans growth with fluconazole; C. albicans CaCi-2 (fluconazole-resistant clinical isolate) + fluconazole, Alamar Blue growth, 48 h; growth inhibition, % (no concentration beside the values); hit rate 0.57% among 300,000;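 active = most replicates above 75%; inconclusive = exactly half above 75%; inactive = most below 75%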;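 also: all wells also contain fluconazole at 8 µg/ml as a sub-toxic cotreatment; 0% = median of DMSO wells and 100% = median of geldanamycin control wells; wells of about 8 µL received 7.5 nL stock; the first replicate is given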
LANA-H2A inh = blocks KSHV LANA binding to histone H2A/H2B. AID 2629. cell-free LANA-H2A/H2B peptide, fluorescence polarization. Q9QR71. inhibition, % (no concentration beside the values). hit rate 0.6% among 320,000; in the data active = inhibition mostly above about 10%, no sharp cut-off; inactive = mostly below about 6.7%;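 also: stock transfer was 7.5 nL into about 10 µL; 0% = median of vehicle wells and 100% = median of positive control wells; one replicate is shown; the record names a cut of 25% in any replicate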
T cruzi repl = T. cruzi replication inhibition. T. cruzi beta-gal in NIH3T3, luminescence, 90 h. inhibition, % (test concentration not listed). hit rate 1.4% among 300,000. AID 1885;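 active = mean inhibition across valid replicates above about 55%, limit read from the data; inconclusive = mean below that limit but half or more replicates reach it; inactive = mean below it, under half of replicates reach it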;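 also: signal also drops with host cell toxicity which is not excluded here; 0% = plate median of DMSO wells and 100% = zero luminescence signal; higher percent means less beta-gal luminescence so fewer parasites; stock transfer was 50 nL into about 50 µL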
Beta2AR agonist = human beta-2 adrenergic receptor agonism by FAP; hit rate 0.43% among 340,000; response, % (no concentration beside the values); Am2.2-beta2AR cells, FAP receptor internalization, flow cytometry; reference of the scale not given here; AID 504454; P07550;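 active = response above a set limit, near 3 SD of response in nonfluorescent compounds, cut at about 42% in these data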;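 also: stock transfer was 100 nL into about 11 µL; a reference agonist was the positive control; negative values mostly stem from fluorescent compounds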
Target sequence (P07550 whole entry, looked up): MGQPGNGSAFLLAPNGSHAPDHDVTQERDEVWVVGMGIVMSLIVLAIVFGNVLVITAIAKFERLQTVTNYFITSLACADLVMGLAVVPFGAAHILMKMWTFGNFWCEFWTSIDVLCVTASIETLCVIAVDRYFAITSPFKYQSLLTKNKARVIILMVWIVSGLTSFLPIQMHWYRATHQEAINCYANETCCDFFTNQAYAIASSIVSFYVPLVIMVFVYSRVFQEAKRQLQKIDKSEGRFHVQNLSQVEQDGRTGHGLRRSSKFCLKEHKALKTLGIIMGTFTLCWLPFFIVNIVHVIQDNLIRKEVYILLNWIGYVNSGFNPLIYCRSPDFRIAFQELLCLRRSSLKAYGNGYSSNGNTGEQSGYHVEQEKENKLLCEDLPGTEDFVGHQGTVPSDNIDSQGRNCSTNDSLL
Active calls of the source: *; u = inconclusive; x = no result given.

SMILES	Beta apoptosis	Bfl-1 A1 inh	RanGTP-Imp inh	UCH37 DUB inh	Calb FLC	LANA-H2A inh	T cruzi repl	Beta2AR agonist
CCc1nc2ccccc2c(C(=O)OCC(=O)NC2CC2)c1C	0	0.2	x	0.4	x	-5.8	x	5
OCC1(CCOc2ccccc2)CCN(Cc2ccc3c(c2)OCCO3)CC1	0	-0.8	3.3	1.7	9	3.6	8	-2
CN(C)c1ccc(N=C/C=C2\N(C)c3ccccc3C2(C)C)cc1	12	-0.1	4.5	17	-2	-55	30	-169
Cc1nc(SCC(=O)NCc2ccco2)nc(C)c1C	-1	-2.3	-1.3	4.2	-2	-1.0	-4	-7
CC1(C)CC2(C)OC(=N)C1(C#N)C2(C#N)C#N (stereo not given)	-26	0.3	1.1	-1.9	-10	4.3	-20	5
Cn1c(SCC(=O)NCc2ccco2)nnc1C1CC1	3	0.1	x	0.0	x	2.4	x	-8
C(=C\c1ccccc1)/CSc1nnc(-c2cnccn2)n1Cc1ccco1	-4	1.0	-0.3	5.1	-7	-1.5	0	-5
CCCC(=O)Nc1sc(C(=O)OC)c(C)c1C(N)=O	-1	0.5	-2.0	2.1	13	1.2	-9	-2
O=C(Nc1ccc(-c2ccccc2)cc1)c1ccc2c(c1)S(=O)(=O)c1ccccc1C2=O	0	0.5	-0.1	3.8	-12	-8.6	-8	1
COC(=O)[C@@]1(Cc2ccc(F)cc2)[C@H]2c3cc(C(=O)N4CCCC4)n(CCc4c[nH]c5ccc(OC)cc45)c3C[C@H]2CN1C(=O)c1ccccc1	1	1.7	-3.0	3.8	45	-0.6	35	x
Cc1cccc(N2C(S)=C(C#N)C(=O)NC2c2ccco2)c1 (stereo not given)	-5	0.4	-3.3	2.1	26	-1.6	-13	13
CC1CCC(N(CCCN)Cc2ccco2)CC1C (stereo not given)	9	-0.2	1.0	4.1	-3	-2.5	13	3
CC(C)c1nnc(N2C(=O)C(O)=C(C(=O)c3cccs3)C2c2ccccc2)s1 (stereo not given)	x	x	-14	9.5	u	x	4	4
COc1ccc(CN2CCN(CC3CC3)CC2CCO)cc1C (stereo not given)	-2	0.9	-0.3	3.7	2	-11	-4	8
Fc1cccc(Cl)c1Cn1nnc2c(NCc3ccccn3)ncnc21	-5	-1.1	8.4	1.1	-4	-7.3	7	9
CC(C)C(NC(=O)C(c1ccccc1)c1ccccc1)c1nc2ccccc2[nH]1 (stereo not given)	40	-0.6	-2.2	0.8	0	-6.0	18	16
Cc1nc2c3cnn(-c4ccc(C)c(C)c4)c3ncn2n1	7	-5.9	0.8	4.6	2	2.6	1	-6
O=c1[nH]c(=S)n(C2CCCCC2)c(O)c1C=NCCN1CCOCC1	-8	0.0	7.9	7.5	6	4.5	-9	2
CNC(=O)COC(=O)c1c2c(nc3ccccc13)CCC2	1	0.3	0.2	-11	110*	-2.1	-10	5
N=C(N)N1CCN(Cc2ccccc2)CC1	-1	-0.1	-0.5	4.2	18	-2.8	-9	x
O=C1CC(C(F)(F)C(F)(F)C(F)(F)C(F)(F)F)=Nc2ccccc2N1	0	0.3	1.5	4.9	-24	-3.2	-6	-11
Cc1ccc(C(=O)CSC2=NC(N)=C(C#N)C3(CCCCC3)C2C(N)=O)cc1 (stereo not given)	5	-0.4	-1.3	5.6	9	2.9	9	-1
C/C(=N\NC(=O)CN(c1ccccc1Br)S(C)(=O)=O)c1ccc2c(c1)OCCO2	-1	0.6	-10	x	-3	-3.0	-3	-2
CC(CN1CCN(C)CC1)OC(=O)c1ccc(Cl)cc1 (stereo not given)	-1	0.0	1.3	1.1	13	3.7	59*	-4
Cc1oncc1-c1csc(-c2ccccc2Cl)n1	4	-1.2	-2.0	1.9	-6	0.9	-8	0
O=C(/C=C/c1ccc(Cl)cc1)N(Cc1ccccc1)C1CCS(=O)(=O)C1 (stereo not given)	3	0.5	6.5	3.9	23	0.9	2	-8
Cc1[nH]cnc1C(=O)N/N=C/c1c(Cl)cccc1Cl	34	-6.7	4.1	x	-7	5.0	-8	-3
COCC[N+]1(C)CCCCC1	-2	3.0	-1.8	2.6	-8	-4.4	1	0
Cc1ccc(S(=O)(=O)Nc2cc(C)cn(Cc3ccc(F)cc3)c2=O)cc1	6	2.3	2.9	7.3	0	-1.1	-4	7
O=C1CCC/C=C\C[C@@H](CC(=O)N(CCO)Cc2ccccc2)C(=O)NCCO1	-6	0.0	x	-1.2	x	3.0	x	0
O=C(NCCCN1CCOCC1)c1ccccc1NS(=O)(=O)c1cc([N+](=O)[O-])ccc1Cl	-5	-0.8	2.9	4.1	14	-2.8	10	1
Cc1ccccc1CN(C)C(C)C(=O)Nc1ccccc1F (stereo not given)	11	0.2	1.3	2.3	0	-6.6	6	5
CC(C)(C)OC(=O)N1CCC(NC(=O)c2[nH]cnc2C(=O)Nc2ccon2)CC1	-1	0.5	x	2.0	x	-2.1	x	5
O=C(CNCc1ccccc1Cl)Nc1ccccc1N1CCCCC1	-5	-1.5	-1.9	2.8	-2	5.0	3	1
CN(c1ccccc1)c1cc(Br)nc(Br)c1	-9	0.3	-1.2	5.3	-2	3.2	x	0
COc1ccccc1C(=O)C1CCCN(C(=O)CCc2ccccn2)C1 (stereo not given)	0	-0.5	5.6	3.5	6	5.6	-5	0
COc1ccc(N(Cc2ccccc2)S(=O)(=O)c2cccc(C(=O)NC3=NCCS3)c2)cc1	0	0.5	0.0	3.0	-1	1.9	25	6
O=C(Nc1cccc(Cl)c1)NC1CC2CCC(C1)N2Cc1ccco1 (stereo not given)	-5	-0.2	33*	5.8	-2	-1.8	11	0
CCOC(=O)c1cnc(SCC(=O)Nc2cc(OC)cc(OC)c2)nc1N	3	-0.5	-2.6	-1.0	10	-3.2	-5	-13
Cc1ccc(S(=O)(=O)N(C)CC(=O)NNC(=O)Cc2ccccc2F)cc1	0	0.5	x	3.7	x	1.0	x	-13
COc1ccc(-c2cc(=O)oc3cc(OCC(=O)N(C)C4CCS(=O)(=O)C4)ccc23)cc1 (stereo not given)	10	-0.1	1.1	-5.5	20	-3.9	7	4
CCOC(=O)C1CCCN(C(=O)Cn2nc(Cc3cccnc3)c3ccccc3c2=O)C1 (stereo not given)	-5	-0.6	1.9	1.0	-9	2.8	6	-1
CC1=NNC(=O)C1CCC(=O)N/N=C\c1ccc(Cl)c(Cl)c1 (stereo not given)	-4	-2.1	0.1	x	-5	1.6	-17	4
C/C(=N\NC(=O)Cc1cc(=O)[nH][nH]1)c1cccc([N+](=O)[O-])c1	-1	0.3	2.3	x	3	-0.2	-17	-2
O=C(Nc1nc2ccc(F)cc2s1)C1CCCO1 (stereo not given)	x	-6.2	u	2.1	-5	-1.6	6	2
CCC(=O)N1CCc2cc(OC)c(OC)cc2C1COc1ccc(C(=O)OC)cc1 (stereo not given)	-11	0.2	x	0.0	-17	-4.2	1	-1
CCOCCCN(C)C1CCN(C(=O)c2oc3ccccc3c2NC(=O)Cc2ccc(F)cc2)CC1	-6	0.5	-0.3	0.7	3	-2.6	u	1
Cc1ccc(C(=O)NCC(=O)OCCCOC(=O)CNC(=O)c2ccc(C)cc2)cc1	0	0.2	0.3	3.7	7	1.7	5	-7
O=C(Cn1nc(C(=O)O)c2ccccc2c1=O)Nc1cccc(S(=O)(=O)N2CCOCC2)c1	-4	-0.2	x	0.2	x	-1.6	x	0
CC1CCCC(NC(=O)CC2Nc3ccccc3NC2=O)C1C (stereo not given)	-8	1.1	1.1	-7.2	-5	4.9	-9	-6

The list goes on.
SMILES	Beta apoptosis	Bfl-1 A1 inh	RanGTP-Imp inh	UCH37 DUB inh	Calb FLC	LANA-H2A inh	T cruzi repl	Beta2AR agonist
Cc1c(C(=O)NCCSCc2ccccc2)cccc1[N+](=O)[O-]	4	1.0	0.4	1.6	-2	13	4	2
COc1ccc(OCCNC(=O)/C=C/c2ccccc2)cc1	-3	-0.4	-3.2	-3.6	0	-3.2	-8	-12
COc1ccc(NC(=S)NC(=O)c2ccccc2Cl)cc1	-1	0.3	-1.6	-0.8	-7	2.1	6	0
COC(=O)[C@@H]1CCCN1C(=O)CCc1nnc(CCC2CCCCC2)o1	-9	-0.4	-0.7	1.9	-14	-1.4	-12	-3
N#Cc1c(-c2ccccc2)nc(SCc2ccc([N+](=O)[O-])cc2)[nH]c1=O	-6	0.2	-0.8	1.0	2	-2.1	-6	16
Cc1ccccc1OCc1nc2ccccc2c(=O)n1/N=C/c1c[nH]c2ccccc12	7	-0.1	-3.0	x	-16	-2.6	43	9
CCOc1cccc(/C=C/c2ccc3ccccc3n2)c1OC(C)=O	9	-6.4	2.1	-37	9	1.9	1	-3
CC(C)CCC1(C)NC(=O)N(CC(=O)Nc2ccc3c(c2)OCCO3)C1=O (stereo not given)	-7	0.9	x	1.0	x	-4.7	x	2
CCc1c(O)nc(SCC(=O)Nc2ccccc2OC)[nH]c1=O	-1	-0.4	0.0	5.2	-3	0.2	-11	2
COC(=O)Cc1ccc(NC(=O)c2ccc3c(c2)C(=O)N(Cc2cccnc2)C3=O)cc1	3	-0.9	-1.6	6.6	4	-2.3	-20	6
Cc1c(C)c(C)c(C(=O)CCc2cccc(NC(=O)CCC(=O)O)c2)c(C)c1C	-7	11*	-1.3	1.5	7	2.6	2	1
CCOc1cc2[nH]c(=S)n(Cc3ccc(C(=O)NCCCOC)cc3)c(=O)c2cc1OCC	x	0.3	-1.0	-0.8	-2	-6.0	-3	16
Cn1nnnc1SCC(=O)Nc1ccccc1C(N)=O	-4	0.1	-0.8	0.1	-4	-0.7	-19	-1
COc1ccc(S(=O)(=O)NC(CC(=O)NCc2ccc3c(c2)OCO3)c2ccco2)cc1 (stereo not given)	1	-0.6	-1.6	0.4	2	-1.1	25	-7
COc1cccc(NC(=O)COc2ccc(C(=S)N3CCN(C)CC3)cc2OC)c1	1	0.2	-2.0	4.1	7	-2.0	17	-3
Nc1nc(N)c(N=Nc2ccc(C(=O)O)cc2)c(N)n1	-11	-0.6	1.2	8.3	0	-3.5	15	10
CCCC(=O)O/N=C(\c1ccccc1)c1ccncc1	-7	0.3	-2.4	x	3	1.2	-1	-2
C=CCC(O)(CC=C)CNC(=O)c1ccc(OC)c(OC2CCN(C(C)=O)CC2)c1	x	-0.7	0.0	3.4	6	-1.3	-24	-3
CCOC(=O)c1ccc(NC(=O)N2CC(C)OC(C)C2)cc1 (stereo not given)	-3	1.0	5.2	-0.3	3	4.7	1	-1
CCC(=O)N1CCc2cc(S(=O)(=O)CCC(=O)N3CCc4ccccc4C3)ccc21	1	0.2	-1.7	-0.5	-14	-5.3	-5	-11
O=C(c1ccc2ccccc2c1)C1CCCN(C(=O)c2cnccn2)C1 (stereo not given)	-2	-0.1	2.6	-17	-2	2.6	-10	-10
CC1=CN2C(=N)/C(=C/c3ccc(Sc4ccc(C)cc4)o3)C(=O)N=C2S1	5	-0.2	-0.7	5.1	10	3.6	-20	18
O=C(CCN=C1NS(=O)(=O)c2ccccc21)OCc1cccc(Cl)c1	-2	-0.2	2.1	2.5	6	0.5	-12	16

No enrichment for hits (roughly 4.3% active in at least one column).
